PrP 5UTR inh = inhibition of PrP 5' UTR reporter expression; hit rate 0.35% among 340,000; cell-based PrP 5' UTR mRNA reporter, plate reader; inhibition, % (test concentration not listed);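 active means every replicate at 50% or more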;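 further: 0 = median of the neutral control wells; tested in H4 reporter cells; numbers are from one replicate; inactives centre near -14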
Sa RN4220 lethal = S. aureus RN4220 growth inhibition. AID 1259311. hit rate 0.33% among 330,000. OD600, 16 h. inhibition, % (concentration not given with the values);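 active means z-score of -3 or lower and OD600 up to 0.18 on both plates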;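 further: plate controls were untreated cells for no effect and reference antibiotic for full effect; stock transfer was 100 nL into about 80 µL; one replicate is shown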
Autofluor counter = compound fluorescence in toxin protease inhibitor counterscreen; AID 624483; compound autofluorescence counterscreen, microsphere flow cytometry; active compounds read high; hit rate 3.1% among 360,000; fluorescence intensity (concentration not given with the values);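 active means at least 3 SD above the mean of all compounds, about 16000 in these data; inconclusive means too few beads counted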;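 further: 100 nL of 1 mM stock went into each well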
BJeLR viability = BJeLR cell viability loss. BJeLR (HRASV12) viability, CellTiter-Glo ATP luminescence, 48 h; reference of the scale not given here. inhibition, % (test concentration not listed). hit rate 0.17% among 300,000. AID 1554;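 active means replicate mean above 50%; inconclusive means above 50% but judged a plate artefact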;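 further: 50 nL library stock added to about 25 µL; numbers are from one replicate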
ugtP null kill = compounds lethal to S. aureus RN4220 ugtP deletion mutant; OD600 growth, 16 h; some inactives read as strong as hits; growth inhibition, % (no concentration beside the values); hit rate 0.54% among 330,000;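 active means z-score under -3 and OD600 up to 0.15 on both plates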;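 further: plate controls were untreated wells for no effect and antibiotic for full effect; wells of about 80 µL received 100 nL stock; the first replicate is given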
Mtb hypoxia inh = reduces hypoxia-regulated biosensor signal in M. tuberculosis. hit rate 0.1% among 300,000. M. tuberculosis hypoxia-regulated fluorescent reporter, fluorescence. fluorescence inhibition, % (no concentration beside the values);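 active means 35 to 45% if threefold the growth effect, above 45% if 1.5-fold the growth effect; inactive means the rest, general growth blockers included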;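 further: wells of about 50 µL received 100 nL stock; 0% = vehicle wells and 100% = reference inhibitor wells; whole bacteria with a GFP reporter of the hypoxia response; strong numbers were not always called active; many hits fall short of the cut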
Mtb hypoxia inh growth = second read-out of Mtb hypoxia inh, no call of its own (marks repeat the call); growth inhibition, %; measured here: M. tuberculosis growth (absorbance);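 0% = vehicle and 100% = reference antibiotic; read after six days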
* marks the source's active call; other numbers are inactive results; ? = inconclusive; / = not tested or not shown.

SMILES | PrP 5UTR inh | Sa RN4220 lethal | Autofluor counter | BJeLR viability | ugtP null kill | Mtb hypoxia inh | Mtb hypoxia inh growth
COC(=O)C1=C(C)N(CCCC(=O)O)C(=O)NC1c1ccccc1OS(=O)(=O)c1ccc([N+](=O)[O-])cc1 (stereo not drawn) | -12 | -3.5 | 3134 | -5 | -2 | -5 | -1
COC(=O)c1cccc(N(CC(=O)NCC2CCCO2)C(=O)CCC(=O)Nc2cc(C)on2)c1 (stereo not drawn) | -10 | 3.2 | 4450 | -1 | 11 | 1 | -2
CCc1nnc(NC(=O)c2nc(S(=O)(=O)Cc3ccccc3)ncc2Cl)s1 | -7 | / | 5526 | 3 | / | / | /
Cc1cccc(NC(=S)N2CCN(C(=O)c3ccco3)CC2)c1C | -21 | / | 6121 | 7 | / | / | /
COC(=O)c1cn(C(=O)c2cccc3ccccc23)c2ccccc12 | -39 | -11 | 4162 | 1 | 15 | 0 | 2
CC(Sc1nnc2n1CCCCC2)C(=O)Nc1cccc(S(=O)(=O)N2CCOCC2)c1 (stereo not drawn) | 5 | 4.5 | / | / | 2 | -2 | -1
CC(=O)NC1C(OC(=O)/C=C/c2ccccc2)OC(COC(C)=O)C(OC(C)=O)C1OC(C)=O (stereo not drawn) | -4 | 4.1 | 5659 | -4 | 4 | 7 | 15
Nc1cccc2c1C(=O)N(C(=O)/C=C/c1cccc(F)c1)C2=O | -18 | 4.6 | 5091 | 7 | 5 | 4 | -2
O=C(CC1C(=O)NCCN1Cc1ccc(-c2ccccc2)cc1)NC1CCC1 (stereo not drawn) | -15 | 4.5 | 2748 | 0 | -6 | 5 | 3
CCOc1ccccc1OCCOc1cccc(C(F)(F)F)c1 | -30 | 5.1 | 4231 | -1 | 28 | / | /
Cc1ccccc1-c1nc(C(=O)NCC2CCCO2)cc2c1[nH]c1ccccc12 (stereo not drawn) | -25 | -1.5 | 5941 | -4 | -8 | / | /
CCOc1ccccc1NC(=O)c1cnc(NS(=O)(=O)c2ccccc2)nc1 | -16 | -6.3 | 4158 | 3 | 17 | 10 | -5
COc1ccc(S(=O)CC(=O)Nc2ccccc2Cl)cc1 (stereo not drawn) | -21 | -0.1 | 4340 | 0 | -1 | -1 | 13
N#Cc1c(-c2ccc(Cl)cc2Cl)nc2n(c1=O)CCS2 | -3 | -9.8 | 2428 | 10 | -10 | 14 | 15
Cc1nn(-c2ccc(F)cc2)c(Cl)c1/C=C(\CC(=O)O)c1nc2ccccc2s1 | -2 | 13 | 7918 | 14 | -13 | -2 | 3
NC(=O)[C@H]1CC2(CC(c3cccc(NC(=O)c4ccccc4)c3)=NO2)CN1C(=O)[C@H]1CCC(=O)N1 (stereo partly drawn) | 2 | / | 3772 | -5 | / | / | /
CCOC(=O)CC1=CC(C)(CC(=O)OCC)C(C#N)(C#N)C(N)=C1C#N (stereo not drawn) | -11 | 5.5 | 8579 | 1 | 2 | 8 | 7
CCCCCNC(=O)CSC1=NC(=Cc2ccc(Cl)c(Cl)c2)C(=O)N1CC | / | 5.5 | / | / | 0 | -4 | 1
CCOC(=O)C1=C(Cn2ccc(C(F)(F)F)n2)NC(=O)NC1c1ccc2c(c1)OCO2 (stereo not drawn) | -9 | -2.5 | 5139 | 4 | -10 | / | /
COc1ccccc1NC(=O)CSc1nnc(CNC(=O)c2cccs2)o1 | 16 | 2.8 | 6262 | -11 | 6 | 4 | -2
CC[n+]1cc(-c2ccccc2)nc(N2CCOCC2)n1 | -3 | 0.5 | 6370 | 4 | -3 | -3 | 16
Cc1cc(C)c2oc(C(=O)N3CCN(C)CC3)cc(=O)c2c1 | / | 2.0 | 3403 | -3 | 0 | -9 | -9
CSc1nc(C)c(CCOC(=O)c2cccc(C)c2)c(=O)[nH]1 | -8 | 4.0 | 3301 | -7 | -3 | 6 | 4
O=C(O)c1cccc(NC(=O)c2ccc(CN3C(=O)c4ccccc4C3=O)cc2)c1 | -12 | -2.4 | 3729 | -7 | 8 | 9 | 2
Cc1ccccc1C(=O)N1CCN(c2ccc(NC(=O)c3ccccc3[N+](=O)[O-])cc2)CC1 | 8 | 5.9 | 3622 | -9 | 1 | 7 | 1

(more compounds)
SMILES | PrP 5UTR inh | Sa RN4220 lethal | Autofluor counter | BJeLR viability | ugtP null kill | Mtb hypoxia inh | Mtb hypoxia inh growth
COc1cc(-c2noc(C)c2C(=O)NCc2ccc3c(c2)OCO3)cc(OC)c1OC | -18 | 11 | 3973 | / | 4 | -4 | 6
CSc1nc(SCC(=O)NC(c2ccccc2)c2ccccc2)c2c3c(sc2n1)CN(C)CC3 | -1 | -9.4 | 16363* | 5 | 12 | -2 | 2
Brc1ccc(COc2cccc3cccnc23)cc1 | / | 8.5 | / | 4 | 7 | 12 | 8
CCc1nnc(SCc2ccc(CSc3nnc(CC)n3N)cc2)n1N | / | 4.5 | 11323 | -2 | 0 | 6 | -2
COc1ccccc1C(=O)NCCn1cc(SCC(=O)Nc2cc(C)on2)c2ccccc21 | -17 | 4.5 | 16999* | -22 | 4 | 1 | 0
CCOC(=O)CNC(=O)/C=C/c1c(Cl)cccc1Cl | -46 | 0.3 | 2453 | 2 | 6 | 9 | 11
CC(C)OC(=O)c1cccc2c1C(=O)c1ccccc1-2 | -22 | 2.2 | / | -3 | 8 | 5 | 0
O=C(CCNC(=O)c1ccccc1Cl)Nc1ccc(Br)c(C(F)(F)F)c1 | -19 | -2.6 | 2713 | -3 | -22 | 2 | 3
Cc1[nH]n(-c2ccccc2)c(=O)c1/C=N/c1ccccn1 | -24 | / | 4680 | 2 | / | / | /
CCOC(=O)c1[nH]c(C)c(C(=O)N(CC)CC)c1C | -32 | 1.7 | 6239 | 8 | -5 | / | /
Cc1cc2oc(=O)cc(CN3CCN(S(=O)(=O)c4cccs4)CC3)c2cc1C(C)C | -14 | -2.5 | 2271 | 5 | 28 | 3 | 4
Cn1c(=O)c2c(nc(CN3CCc4ccccc4C3)n2CCCO)n(C)c1=O | -12 | 4.8 | 2477 | -5 | -5 | 5 | 1
CCOc1ccccc1NC(=O)CSc1nc(=O)n(CCCN2CCOCC2)c2c1CCC2 | -6 | 1.4 | 5599 | 14 | 0 | -4 | 0
CCc1nn(CC(=O)N2CCN(Cc3ccc4c(c3)OCO4)CC2)c(=O)c2cc3occc3n12 | -5 | 6.1 | 2248 | 4 | -15 | -8 | 12
CCOC(CNC(=O)CN1C(=O)COc2ccc(S(=O)(=O)N3CCCC3)cc21)OCC | -34 | 3.4 | 5189 | 3 | 7 | 10 | 7
COc1cc(CN2CCC(C(=O)N3CCCC(C)C3)CC2)cc(Br)c1O (stereo not drawn) | -18 | 1.5 | 9798 | -6 | 0 | 10 | 6
COc1cc(C2C(C#N)=C(N)N(c3cccnc3)C3=C2C(=O)CC(C)(C)C3)ccc1O (stereo not drawn) | -19 | 7.1 | 10664 | 2 | -1 | 2 | 0
COc1ccc(C(=O)NCc2cn3ccccc3n2)cc1 | -11 | 4.8 | 3294 | 9 | -2 | 1 | 5
COc1ccc(S(=O)(=O)Nc2ccc3c(c2)C(=O)N(C(C)CO)CC(C)C(CN(C)S(=O)(=O)c2ccccc2)O3)cc1 (stereo not drawn) | / | 3.2 | / | / | 4 | 2 | 7
COCc1c(C(=O)OCC(=O)NCCc2ccc(S(N)(=O)=O)cc2)oc2ccccc12 | -6 | 2.7 | 4058 | / | 4 | 5 | -1
COc1cccc2c1OC[C@@H](CO)[C@H]2N(C)C(=O)Nc1ccc(Cl)cc1 | -29 | -0.4 | 21011* | 6 | -9 | -7 | 3
Fc1cccc(Cl)c1/C=N/n1c(-c2cccnc2)n[nH]c1=S | -13 | / | 1972 | 13 | / | / | /
Brc1ccc(CSc2nnc(Cc3c[nH]c4ccccc34)o2)cc1 | -12 | 8.4 | 15459 | -6 | 42 | 2 | -4
O=C(CC1CC=CCC(Cc2ccc(F)cc2)C(=O)OCC(c2ccccc2)NC1=O)NCCO (stereo not drawn) | / | 7.3 | / | / | 4 | 19 | 7
CCOC(=O)c1cc(CO)cc(C(=O)OCC)c1 | 4 | 3.3 | 4167 | -3 | 8 | 15 | 1

Reprinted from the part before: 5 compounds, followed by the next part.
SMILES | PrP 5UTR inh | Sa RN4220 lethal | Autofluor counter | BJeLR viability | ugtP null kill | Mtb hypoxia inh | Mtb hypoxia inh growth
COc1cccc2c1OC[C@@H](CO)[C@H]2N(C)C(=O)Nc1ccc(Cl)cc1 | -29 | -0.4 | 21011* | 6 | -9 | -7 | 3
Fc1cccc(Cl)c1/C=N/n1c(-c2cccnc2)n[nH]c1=S | -13 | / | 1972 | 13 | / | / | /
Brc1ccc(CSc2nnc(Cc3c[nH]c4ccccc34)o2)cc1 | -12 | 8.4 | 15459 | -6 | 42 | 2 | -4
O=C(CC1CC=CCC(Cc2ccc(F)cc2)C(=O)OCC(c2ccccc2)NC1=O)NCCO (stereo not drawn) | / | 7.3 | / | / | 4 | 19 | 7
CCOC(=O)c1cc(CO)cc(C(=O)OCC)c1 | 4 | 3.3 | 4167 | -3 | 8 | 15 | 1
COc1ccc(CNC(=O)c2ccc(N3CCC4(CC3)CC(c3ccc(Cl)cc3)=NO4)c(NC(=O)c3ccccc3)c2)cc1 | -19 | 1.6 | 4013 | 1 | 9 | 6 | -1
Cc1noc(C)c1COc1ccc(C(=O)NCCc2ccc(S(N)(=O)=O)cc2)cc1 | -22 | 2.6 | ? | -1 | 1 | -1 | -2
Cc1ccc(-c2noc(CCC(=O)N(C)c3ccccc3C)n2)cc1 | -25 | 3.4 | 2739 | 5 | -8 | / | /
CCOc1ccc(OCCC(=O)OCC(=O)NCc2ccc(Cl)cc2)cc1 | 4 | 4.7 | 5881 | 6 | 4 | 5 | 12
Cc1cc(C)n(-c2ccc(C(=O)OCC(=O)NCc3ccc(F)cc3)cc2)n1 | -12 | 4.7 | 7004 | -1 | 4 | -5 | -6
O=C(Nc1ccc(NC(=O)N2CCN(c3ccccc3O)CC2)cc1)N1CCN(c2ccccc2O)CC1 | -13 | 3.8 | 4496 | -7 | -6 | -11 | 5
O=S(=O)(c1cccc(-c2nc3ccccc3s2)c1)N1CCCC1 | -23 | 4.7 | 23878* | 1 | 4 | 10 | 9
CCOC1OC(C(=O)NC2CC2)=CC(c2csc3ccccc23)C1CCCO (stereo not drawn) | / | 11 | / | / | 0 | 0 | -3
CCn1cc(C(=O)NN)c(=O)c2cc(F)c(NC3CCCCC3)cc21 | -10 | 2.7 | 4463 | 12 | 2 | -16 | 4
CCn1c(CSc2nc3ccccc3s2)n[nH]c1=S | -17 | 5.9 | 20748* | -8 | -1 | 12 | 6
O=C1CCCN1CCC1CCCCN1Cc1nc(COc2ccccc2)no1 (stereo not drawn) | -8 | 4.2 | 4395 | 5 | 7 | 8 | 12
c1cc2nnnn2nc1N1CCCCC1 | -22 | 1.3 | 12364 | -2 | 3 | 2 | 0
CNC(=O)Nc1cccc(NC(=O)NC)n1 | -8 | -0.3 | 3671 | 5 | 9 | / | /
Cc1c(-n2c(SCC(=O)NC(C)C(C)C)nc3ccccc3c2=O)c(=O)n(-c2ccccc2)n1C (stereo not drawn) | -11 | 6.9 | 2659 | -6 | 1 | 9 | 6
Cc1ccc(NC(=O)CS(=O)CC(=O)Nc2cccc(C)c2C)cc1F (stereo not drawn) | -8 | 4.3 | 5762 | 3 | 0 | 8 | 12
CCCn1nnnc1SCC(=O)N1CCCc2ccccc21 | -23 | 7.8 | 8825 | -3 | 7 | 10 | 4
Cc1ccc(C)c(NC(=O)c2nc(-c3ccccc3)n(-c3ccccc3)n2)c1 | -29 | 1.8 | 4694 | -6 | 2 | 14 | 11
O=C(Nc1ccccc1Cl)c1ccccc1Oc1ccc(C(F)(F)F)cc1[N+](=O)[O-] | -8 | -1.4 | 4868 | 6 | 31 | / | /
Cc1cc(C)c(C)c(S(=O)(=O)N2CCN(CC(=O)Nc3ccc([N+](=O)[O-])cc3)CC2)c1C | -8 | 6.2 | 2441 | -3 | 5 | -2 | 2
CCCCn1c(N)c(N(Cc2ccccc2OC)C(=O)COc2ccc(F)cc2Cl)c(=O)[nH]c1=O | 3 | -0.4 | 6231 | 4 | -4 | 7 | 20
CC1CCc2c(sc(NC(=O)c3ccco3)c2C(=O)O)C1 (stereo not drawn) | -35 | 10 | 4368 | -9 | 2 | 16 | -2
COc1cc2c(cc1OC)C(/C(C#N)=N\O)=NC(C)(C)C2 | -29 | / | 10431 | 13 | / | / | /

From PubChem BioAssay
